Source: PubChem BioAssay
SARS PLpro yeast = inhibitors of SARS-CoV papain-like protease in yeast; S. cerevisiae expressing SARS-CoV PLpro, growth rescue; control for the full effect not named in the record; hit rate 0.19% among 330,000; AID 485353; Potency, µM (top dose mostly 32.9 µM), for the others: top-dose activity, positive = growth rescue; active means well fitted rising curve with a large enough effect; inconclusive means small, poorly fitted or top-dose-only effect; inactive means no such curve, though single readings can be large or run the other way; note: 0% is about no effect; nearly all actives have a fitted effect of over 55% in size; growth read by luminescence after 48 h
2A StopGo = lowers the luciferase signal of an FMDV 2A StopGo reporter; human cells with a luciferase reporter of 2A StopGo recoding; control for the full effect not named in the record; Potency, µM (top dose mostly 57.9 µM), inactives show top-dose signal change, negative = less light; hit rate 1.2% among 410,000; AID 1159524; active = well fitted falling curve with a large enough effect; inconclusive = small, poorly fitted or top-dose-only effect; inactive = no such curve, though single readings can be large or run the other way; tested in HEK293T cells; note: % is set by controls: 0 for no effect and ±100 for the full control effect; nearly all actives have a fitted effect of over 45% in size; luciferase light after 4 h
RE007 growth inh = less growth of the S. pombe RE007 Vpr strain. S. pombe RE007 Vpr strain, BacTiter-Glo ATP luminescence, 24 h; control for the full effect not named in the record. Potency, µM (series often up to 92.2 µM), for inactives: at the top dose activity change, negative = less growth. hit rate 0.21% among 360,000. AID 651644; active = well fitted falling curve with a large enough effect; inconclusive = small, poorly fitted or top-dose-only effect; inactive = no such curve, though single readings can be large or run the other way;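 note: % is set by controls: 0 for no effect and ±100 for the full control effect; nearly all actives have a fitted effect of over 50% in size; the assay follows cell death caused by Vpr and the record does not say whether a fall means rescue or toxicity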
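Fission yeast RE007 carrying one integrated HIV-1 vpr copy, seeded at OD 0.01 in PMG+AL medium with 23 nL pinned compound. Grown 24 h at 30 degrees; viability read by BacTiter-Glo luminescence after 5 min.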
The depositor's hits bear a star; ? = inconclusive; [ ] = remark or other dose. Potency is the fitted concentration of half-maximal effect.

Below each compound: 2A StopGo, RE007 growth inh, SARS PLpro yeast
COc1ccc(NC(=O)Cc2ccc(Cl)cc2)cc1S(=O)(=O)N1CCCCC1
    -3.5%, 1.5%, 1.3%
Cc1ccc(-n2nnnc2SCC(=O)c2c(N)n(C3CC3)c(=O)[nH]c2=O)c(C)c1
    ?, 7.2%, -0.3%
Cc1ccc(S(=O)(=O)N(C)C)cc1NC(=O)c1ccncc1
    -13.0%, -12.0%, -1.1%
Cc1nn(CC(=O)NC2CCS(=O)(=O)C2)c(C)c1S(=O)(=O)N(C)C (stereo not given)
    4.6%, 6.4%, 1.7%
Cc1ccc(NC(=O)CN(C)C(=O)c2ccc(Cl)c(S(=O)(=O)NCc3ccco3)c2)cc1
    41.6%[activator], -3.3%, 2.8%
COc1ccc(NC(=O)/C=C/c2c(Cl)nc3ccccn23)cc1
    -3.0%, -11.7%, -3.9%
COc1ccc(NC(=O)CO/N=C/C(=O)Nc2ccccc2C)c([N+](=O)[O-])c1
    27.2%, -0.2%, 7.2%
CCC(=O)NCC(c1ccco1)N1CCN(c2ccc(OC)cc2)CC1 (stereo not given)
    -17.7%, 5.6%, -0.3%
N#Cc1cnn2c(-c3cccc([N+](=O)[O-])c3)ccnc12
    0.5%, 9.8%, 0.6%
COc1cc2ccccc2cc1C(=O)N1CCN(c2ccccc2O)CC1
    -3.6%, 7.5%, -1.0%

Below each compound: 2A StopGo, RE007 growth inh, SARS PLpro yeast
Cc1cc(C)c(NC(=O)CNC(=O)COC(=O)Cc2ccccc2C)c(C)c1
    -16.3%, 3.7%, 0.0%
Cc1ccccc1C(=O)N1CCC(C(=O)NN2C(=O)NC3(CCC(C)CC3)C2=O)CC1 (stereo not given)
    -4.9%, 8.5%, -7.1%
Cc1ccc(NC(=O)CCC(=O)N/N=C/c2cccs2)cc1
    -8.9%, -4.8%, -0.3%
CC(=O)Nc1ccc(NC(=O)C(C)OC(=O)CCSc2ccccc2Cl)cc1 (stereo not given)
    -5.8%, -7.3%, -0.6%
COc1ccc(CCN(C)C(=O)c2ccc3c(=O)n4c(nc3c2)CCCCC4)cc1OC
    -23.5%, -11.3%, 0.5%
O=C(NCCc1ccccc1)c1cccc2c1C(=O)c1ccc(N3CCOCC3)cc1S2(=O)=O
    9.9%, 4.3%, -4.1%
O=C(C[C@@H]1C/C=C/CC[C@@H](Cc2ccc(F)cc2)C(=O)O[C@@H](c2ccccc2)CNC1=O)NCCO
    -20.0%, 11.2%, -15.5%
CCCCN(C)CCCNC(=O)/C=C1\Sc2ccccc2NC1=O
    0.0%, -2.1%, -0.2%
O=C(N[C@H]1C/C=C\C[C@H](CC(=O)N(CCO)Cc2ccccc2)C(=O)N[C@@H](c2ccccc2)COC1=O)OCC1c2ccccc2-c2ccccc21
    -4.3%, -8.8%, 1.6%
O=C1NC(=O)N(c2ccccc2F)C(=O)/C1=C/c1ccc(Oc2ccc([N+](=O)[O-])cn2)cc1
    -23.2%, 29.9%, -2.3%

Of the compounds above, 6 have an aryl methoxy group:
Below each compound: 2A StopGo, RE007 growth inh, SARS PLpro yeast
COc1ccc(NC(=O)Cc2ccc(Cl)cc2)cc1S(=O)(=O)N1CCCCC1
    -3.5%, 1.5%, 1.3%
COc1ccc(NC(=O)/C=C/c2c(Cl)nc3ccccn23)cc1
    -3.0%, -11.7%, -3.9%
COc1ccc(NC(=O)CO/N=C/C(=O)Nc2ccccc2C)c([N+](=O)[O-])c1
    27.2%, -0.2%, 7.2%
CCC(=O)NCC(c1ccco1)N1CCN(c2ccc(OC)cc2)CC1 (stereo not given)
    -17.7%, 5.6%, -0.3%
COc1cc2ccccc2cc1C(=O)N1CCN(c2ccccc2O)CC1
    -3.6%, 7.5%, -1.0%
COc1ccc(CCN(C)C(=O)c2ccc3c(=O)n4c(nc3c2)CCCCC4)cc1OC
    -23.5%, -11.3%, 0.5%

(continued)
Below each compound: 2A StopGo, RE007 growth inh, SARS PLpro yeast
C[C@H]1CN([C@@H](C)CO)C(=O)Cc2cc(NC(=O)C3CC3)ccc2O[C@H]1CN(C)Cc1ccc(Oc2ccccc2)cc1
    ?, -0.8%, 0.6%
O=C(NCc1ccco1)C1CCCN1C(=O)Nc1ccccc1 (stereo not given)
    3.4%, 3.1%, 1.6%
O=S1(=O)[C@H]2C[C@H](CO)O[C@@]2(CO)CN1Cc1ccc(-c2ccc(F)cc2)cc1
    -19.3%, 2.9%, -1.0%
COc1cc(/C=N/NC(=O)C2CCN(CC(O)COCc3ccccc3)CC2)ccc1O (stereo not given)
    -8.3%, 2.5%, -3.6%
CCc1ccc(OCC(=O)NNC(=O)CNC(=O)c2ccc(Br)o2)cc1
    -5.7%, -5.4%, -6.9%
COc1ccc2sc(-c3ccc(S(C)(=O)=O)cc3)c(C(=O)NCCc3c[nH]c4ccccc34)c2c1
    1.2%, 6.3%, -4.7%
Cc1ccc(NC(=O)C(C)Oc2ccccc2)cc1S(=O)(=O)N1CCCCCC1 (stereo not given)
    -25.3%, 12.6%, 6.5%
Cc1cc(N2CCN(C)CC2)nc2ccc(NC(=O)CCC(=O)NCCC(C)C)cc12
    11.0%, -13.3%, 1.3%
C=CCC[C@H](Cc1ccc(F)cc1)C(=O)OC[C@@H](Cc1c[nH]c2ccccc12)NC(=O)[C@@H](CC=C)CC(=O)NCCO
    ?, 0.4%, -8.1%
CN(C)/C=C/C(=O)C(F)(F)F
    -5.7%, 5.1%, 1.7%

Below each compound: 2A StopGo, RE007 growth inh, SARS PLpro yeast
Cc1ccc(S(=O)(=O)N2CCCCC2)cc1NC(=O)CN1C(=O)c2ccccc2S1(=O)=O
    1.7%, -8.3%, -5.3%
Cc1cccc(C(=O)OCC(=O)Nc2ccc3c(c2)OCCO3)c1
    36.0%[activator], -0.7%, 3.4%
COc1ccc(NC(=O)Nc2ccc3c(c2)C(=O)N([C@H](C)CO)C[C@H](C)[C@@H](CN(C)C(=O)Nc2ccccc2)O3)cc1
    3.5%, 1.6%, 3.9%
COc1cc(/C=C/C(=O)OCC(=O)NC2CC2)cc(OC)c1OC
    1.6%, 29.3%, 2.1%
COc1ccc(-c2sc3cc4c(cc3c2C#CC2(N)CCCCC2)OCO4)cc1
    41.8%[activator], -10.6%, 0.4%
CCOC(=O)/C=C/[C@H]1CC2(CCO1)SCCCS2
    39.1%[activator], -7.2%, -3.0%
C#CCOc1nc(C)cc(C)c1S(=O)(=O)c1ccccc1C
    -4.5%, -0.3%, -1.5%
CC[C@]12c3[nH]c4cc(CCC(=O)N(C)C)ccc4c3CCN1C(=O)[C@@H](CC(=O)NCCCOC)C[C@@H]2C(=O)N1CCN(C(=O)c2ccco2)CC1
    -8.9%, 1.3%, -15.2%
C=CC[C@@H](CC(=O)N(CCO)Cc1ccccc1)C(=O)N[C@H](COC(=O)[C@@H](CC=C)CC(=O)OC(C)(C)C)Cc1c[nH]c2ccccc12
    ?, -0.8%, -4.8%
C=CCC[C@H](Cc1ccc(F)cc1)C(=O)OC[C@H](Cc1c[nH]c2ccccc12)NC(=O)[C@H](CC=C)CC(=O)NCCO
    -41.9%, 4.4%, 4.3%

Below each compound: 2A StopGo, RE007 growth inh, SARS PLpro yeast
COc1ccc(S[C@@H](CCN2CC[C@H](C)CCC2=O)c2ccccc2)cc1
    -5.5%, 16.8%, -1.2%
CCOc1ccc(CCNC(=O)CSCC(=O)Nc2ccc(OC)cc2)cc1OCC
    -1.0%, -12.5%, -2.5%
COc1cccc(C(=O)NOCc2ccccc2)c1OC
    56.7%[activator], -5.3%, 1.9%
C=CCn1c2ccccc2c(=O)c2cc(C#CC[C@@H](C)O)ccc21
    48.6%[activator], -23.2%, 3.8%
CC1CCCCC1NC(=O)CCS(=O)(=O)c1ccc(Cl)cc1 (stereo not given)
    -11.6%, -1.0%, 1.9%
CCC(CO)Oc1cc(NC(=O)c2ccccc2)c2ncn(C(C)C)c2c1 (stereo not given)
    -22.2%, 1.1%, -0.4%
O=C(Nc1ccc(Br)cn1)c1cccc2c1-c1ccccc1C2=O
    -29.5%, -13.1%, -6.5%
COc1ccccc1NS(=O)(=O)c1ccc(C(=O)NCC(c2ccc(F)cc2)N2CCOCC2)cc1 (stereo not given)
    -18.1%, -3.1%, -0.5%
COc1cc(NS(=O)(=O)c2ccc(NC(=O)CN3C(=O)c4ccccc4C3=O)cc2)ncn1
    2.2%, 4.8%, 4.7%
CCC(CO)Oc1cc(NCc2cccc(C)c2)c2ncn(C(C)C)c2c1 (stereo not given)
    -12.0%, -12.8%, 6.7%

Random excerpt: 4 entries already listed
Below each compound: 2A StopGo, RE007 growth inh, SARS PLpro yeast
COc1cccc(C(=O)NOCc2ccccc2)c1OC
    56.7%[activator], -5.3%, 1.9%
C=CCn1c2ccccc2c(=O)c2cc(C#CC[C@@H](C)O)ccc21
    48.6%[activator], -23.2%, 3.8%
CCC(CO)Oc1cc(NCc2cccc(C)c2)c2ncn(C(C)C)c2c1 (stereo not given)
    -12.0%, -12.8%, 6.7%
COc1ccccc1NS(=O)(=O)c1ccc(C(=O)NCC(c2ccc(F)cc2)N2CCOCC2)cc1 (stereo not given)
    -18.1%, -3.1%, -0.5%

More structures follow.
Below each compound: 2A StopGo, RE007 growth inh, SARS PLpro yeast
CC(C)Cn1c(N)c(C(=O)COC(=O)c2cnc(Cl)c(Cl)c2)c(=O)n(C)c1=O
    -34.0%, 6.2%, -1.4%
COC(=O)CCN1CCN(S(=O)(=O)c2ccc3c(c2)OCCO3)CC1
    -5.6%, -4.5%, 0.2%
C=CCC[C@H](Cc1ccc(F)cc1)C(=O)OC[C@@H](C)NC(=O)[C@@H](CC=C)CC(=O)N[C@@H](CO)Cc1ccccc1
    -3.1%, 5.9%, 5.4%
O=C(C[C@@H]1C/C=C\C[C@H](NC(=O)OCC2c3ccccc3-c3ccccc32)C(=O)OC[C@@H]2CCCN2C1=O)N[C@@H](CO)Cc1ccccc1
    -6.5%, 8.5%, 7.7%
COc1cc(S(=O)(=O)N2CCOCC2)ccc1NC(=O)CSc1n[nH]c(=O)[nH]c1=O
    -5.4%, 8.5%, -2.8%
Cc1ccc(COn2nnc3ccc(S(=O)(=O)N4CCOCC4)cc32)cc1
    -27.0%, 4.7%, -2.9%
Cc1ccn2c(NC3CCCCC3)c(-c3cccc(-c4cccc(Cl)c4)c3)nc2c1
    ?, ?, -0.7%
Cc1cccc(C)c1NC(=O)CNC(=O)c1ccc(N2CCCC2)c([N+](=O)[O-])c1
    -20.1%, -4.2%, 5.0%
Cc1nnc(SCC(=O)NNC(=O)COc2ccc(Br)cc2)n1C
    -16.1%, 6.3%, 7.9%
CCN(CC)S(=O)(=O)c1ccc(N2CCOCC2)c(NC(=O)c2ccc(=O)n(C)n2)c1
    -12.0%, 7.2%, 3.4%

Below each compound: 2A StopGo, RE007 growth inh, SARS PLpro yeast
COc1ccc(NC(=O)c2ccc(Cl)c(S(=O)(=O)N3CC(C)OC(C)C3)c2)cn1 (stereo not given)
    ?, -6.7%, 1.0%
COc1ccccc1C(=O)NCCC(=O)NCc1cccnc1
    -7.6%, -2.6%, -1.3%
O=C(c1cn(Cc2ccccc2)nc1-c1cccnc1)N1CCc2ccccc2C1
    12.3%, 29.7%, -7.4%
Cc1ccc(S(=O)(=O)N2CCCCC2)cc1NC(=O)c1cc(=O)[nH]c2ccccc12
    4.6%, 5.2%, -2.8%
O=C(Nc1cccc([N+](=O)[O-])c1)c1ccc(N2CCCC2=O)cc1
    0.0%, 5.2%, -6.2%
COc1ccc(-c2c(C#Cc3ccsc3)c3cc(Br)ccc3n2C)cc1
    -8.5%, -4.7%, -30.2%
O=C(CS(=O)(=O)c1cn(CC(=O)N2CCOCC2)c2ccccc12)Nc1ccccc1
    -0.4%, 4.0%, -2.5%
CN(Cc1ccco1)C(=O)c1ccc(S(=O)(=O)N2CCCCCC2)cc1
    1.8%, 2.1%, 0.3%
CCc1ccc(C(=O)NNC(=O)c2n[nH]c(=O)c3ccccc23)cc1
    -5.2%, -2.1%, -7.5%
CCCn1c(SCC(=O)NCCCN2CCCC2=O)nc2ccccc2c1=O
    -2.2%, -6.7%, 4.8%
CC1Cc2ccccc2N1C(=O)COC(=O)c1ccc(N(C)C)cc1 (stereo not given)
    15.9%, 0.4%, -2.5%
CC(C)(C)OC(=O)C[C@@H]1C/C=C\C[C@H](CC(=O)NCCO)C(=O)N2CCC[C@@H]2COC1=O
    -15.1%, 4.1%, -2.9%

Only part of the results is shown. The share of hits here may be higher or lower than overall.
